Bioassay records (PubChem BioAssay)
Menin-MLL FL inh: displaces fluorescein MLL peptide from human menin; Fluorescence polarization, fluorescein-MLL peptide displacement from menin; FP activity change, % at 61.4 µM; 290,000 tested, under 10 active; inconclusive = falling polarisation curve, or a change in total fluorescence; inactive = total fluorescence flat and polarisation flat or rising; no compound was filed as active; the % refers to the polarisation; negative = inhibition;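 note: % of control where 0% means no effect; inhibitors lower the polarisation; unlabelled MLL peptide was the positive control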
TRPML1 agonist: human mucolipin-1 channel agonism; TRPML1-expressing cells, Ca2+ dye fluorescence, FDSS; host cell line not named in the record; reference of the full effect not given here; AID 624414; Q9GZU1; activation, % (no concentration beside the values); 0.12% of 410,000 active; in the data active = activation above about 50%; inconclusive = about 30% to 50%; inactive = below about 30%; note: 0% is about no effect; the text of the record puts the active cut at 80%
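In this qHTS format, compounds were pin-transferred onto Ca8-dye-loaded TRPML1-DL cells induced with Tet overnight, and intracellular Ca2+ fluorescence was recorded kinetically for 110 s after a 10 s baseline. A subsequent 4uM final 54-4 (EC80) addition followed by a second 110 s read served as the antagonist phase.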
TRPV1 PAM: enhances activation of the human vanilloid receptor TRPV1. Q8NER1. TRPV1-expressing cells, Fluo-8 calcium influx, capsaicin EC20 potentiation; host cell line not named in the record; control for the full effect not named in the record. potentiation, % at 8.33 µM. 0.02% of 320,000 active; active means potentiation above 80%; inconclusive means 30% to 80%; inactive means below 30%; note: 0% is about no effect
Target sequence (Q8NER1 whole entry, looked up): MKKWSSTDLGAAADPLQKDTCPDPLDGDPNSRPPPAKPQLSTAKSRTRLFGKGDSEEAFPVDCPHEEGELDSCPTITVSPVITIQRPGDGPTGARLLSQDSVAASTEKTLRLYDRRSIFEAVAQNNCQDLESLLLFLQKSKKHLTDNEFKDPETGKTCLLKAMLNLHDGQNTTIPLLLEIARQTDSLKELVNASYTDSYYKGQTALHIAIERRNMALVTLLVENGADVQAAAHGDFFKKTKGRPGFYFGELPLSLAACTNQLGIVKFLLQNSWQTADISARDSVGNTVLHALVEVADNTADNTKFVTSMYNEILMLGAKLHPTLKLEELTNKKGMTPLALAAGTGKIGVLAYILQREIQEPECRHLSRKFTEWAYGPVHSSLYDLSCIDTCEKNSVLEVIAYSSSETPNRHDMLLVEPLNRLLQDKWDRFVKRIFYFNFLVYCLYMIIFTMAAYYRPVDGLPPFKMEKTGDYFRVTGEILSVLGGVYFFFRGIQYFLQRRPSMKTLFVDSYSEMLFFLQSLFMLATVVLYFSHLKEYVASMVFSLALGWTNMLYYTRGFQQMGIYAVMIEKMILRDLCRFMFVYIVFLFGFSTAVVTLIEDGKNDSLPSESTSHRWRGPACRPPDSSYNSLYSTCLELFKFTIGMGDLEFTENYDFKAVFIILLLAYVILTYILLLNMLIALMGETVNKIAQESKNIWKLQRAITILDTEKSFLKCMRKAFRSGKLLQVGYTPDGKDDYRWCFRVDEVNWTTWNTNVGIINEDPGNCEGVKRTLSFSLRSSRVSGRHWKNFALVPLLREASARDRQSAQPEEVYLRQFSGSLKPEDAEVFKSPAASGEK
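Fluo-8 calcium influx in TRPV1-expressing cells, kinetic read (ex 480/em 520 nm). Compound added and read 3 min for agonist activity, followed by capsaicin at EC20 final and 2 min further read for enhancement.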
Sfp inh: blocks B. subtilis Sfp PPTase activity | Q9F4F7 | Biochemical Sfp PPTase activity, qHTS | Potency, µM, without a hit: max response, negative = inhibition, actives largely listed as inhibitors | 3.5% of 310,000 active | AID 1490; active = well fitted inhibition curve with a large enough effect; inconclusive = small, poorly fitted or top-dose-only effect, or another doubt; inactive = no such curve, though single readings can be large or run the other way;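 note: the enzyme is Sfp with the accession as filed and its product quenches rhodamine fluorescence; potency is the fitted concentration of half-maximal effect; 0% = enzyme reaction without inhibitor and -100% = no enzyme wells; top concentration of the series not given in the record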
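Reaction rates are the 30-min fluorescence difference (ex 525, em 598 nm) in wells containing 15 nM Sfp, 5 uM rhodamine-CoA and 12.5 uM BHQ-2-YbbR at pH 7.6 with 10 mM MgCl2.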
TRPML1 inh: blocks the human TRPML1 channel. 0.02% of 390,000 active. Q9GZU1. TRPML1-inducible cells, Ca2+ dye fluorescence, FDSS; active compounds read low; inhibition of EC80 agonist-evoked calcium signal. activity change, negative = inhibition, % (concentration not given with the values); in the data active means activity change below about -50%; inconclusive means about -30% to -50%; inactive means above about -30%;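 note: stimulus is agonist 54-4 at its EC80 concentration; % is set by controls: 0 for no effect and ±100 for the full control effect; the text of the record puts the active cut at -80%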
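TRPML1-DL cells, Tet-induced overnight (~16 h, 37 °C) at 1,500 cells/well, were loaded with Ca8 no-wash dye plus quencher for 45-90 min at room temperature. Compounds were pinned during FDSS kinetic reading; agonist 54-4 at EC80 (4 uM final) then added.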
PINK1 modulator: changes PINK1 expression. PINK1 immunofluorescence, high-content cytometry, 24 h. Potency, µM (doses to about 76.6 µM), inactives show at the top dose activation (PINK1 increase), most hits filed as activators. 0.2% of 410,000 active. AID 624263; active = well fitted activation curve with a large enough effect; inconclusive = small, poorly fitted or top-dose-only effect; inactive = flat fitted curve, though single readings scatter; cell line not stated here;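 note: potency is the fitted concentration of half-maximal effect; % of control where 0% means no effect; nearly all actives have a fitted effect of over 65% in size; a mitochondrial uncoupler was the plate control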
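PINK1 protein level read as immunofluorescence by microplate cytometer in a fixed, stained stable cell line after 24 h exposure to five compound concentrations, with CCCP as control.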
ClpP mod: qHTS Assay for Activators of ClpP. ATP-dependent Clp protease proteolytic subunit (Bacillus subtilis (strain 168)), P80244. purified B. subtilis ClpP, FRET peptide cleavage, 20 min. Potency, µM (titrated, usually from 57.5 µM), inactives show at the highest dose activity change, negative = active. 1.9% of 340,000 active. AID 651965, 2013; active = well fitted falling curve with a large enough effect; inconclusive = small, poorly fitted or top-dose-only effect; inactive = no such curve, though single readings can be large or run the other way; note: potency is the fitted concentration of half-maximal effect; the source files actives as falling curves though it sought activators and does not explain the sign; nearly all actives have a fitted effect of over 65% in size; many hits overshoot -100%
Target sequence (P80244 whole entry, looked up): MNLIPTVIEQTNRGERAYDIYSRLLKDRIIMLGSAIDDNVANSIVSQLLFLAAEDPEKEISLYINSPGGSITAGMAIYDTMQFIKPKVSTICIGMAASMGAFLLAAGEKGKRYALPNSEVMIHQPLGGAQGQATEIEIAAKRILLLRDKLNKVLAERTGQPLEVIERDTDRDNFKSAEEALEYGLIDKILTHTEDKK
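Purified B. subtilis ClpP, 10 microg/mL final in Tris/HCl pH8 with KCl, BSA, glycerol and Tween-20, cleaved an Abz/nitrotyrosine-quenched decapeptide. Fluorescence (ex 320, em 430) was read at 0 and 20 min at room temperature. Delta was normalized to 5.8 microM ADEP and DMSO/no-enzyme controls.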
The depositor's hits bear a star; ? = inconclusive; / = not tested or not shown; [ ] = dose if it differs, or a comment.

SMILES	Menin-MLL FL inh	TRPML1 agonist	TRPV1 PAM	Sfp inh	TRPML1 inh	PINK1 modulator	ClpP mod
CCOC(=O)c1c(NC(=O)CCC(=O)N2CCOCC2)sc2c1CC(C)(C)OC2	4.1	0.7	-16	17%	?	0.0%	-17%
CCN1CCN(C(=O)c2ccc(CN(c3ccccc3)S(=O)(=O)c3ccccc3)cc2)CC1	-0.2	-0.6	7	-10%	2	2.8%	?
CN(Cc1ccccc1)C(=O)c1cccc(NC(=O)Cc2ccc(NC(=O)C3CCCN(C(=O)C4CCCC4)C3)cc2)c1 (configuration not stated)	/	0.7	/	/	7	3.8%	-0.6%
COC(=O)C1=C(C(=O)c2ccccc2)C(c2ccc(OC)c(OC)c2)Nc2nnnn21 (configuration not stated)	1.5	1.6	5	-1%	4	1.3%	0.0%
c1ccc2nc3[nH]cnc3nc2c1	1.2	-0.2	?	13%	-7	?	22µM*
COC(=O)Cn1cnc2c1c(=O)n(C)c(=O)n2C	5.1	-0.8	8	8%	-2	0.5%	0.5%
C/C=C(\C)C(=O)NCCN1C2=NC[C@@H](C)N2C[C@@H]1Cc1ccc(OC)cc1	-0.3	-0.8	-6	18%	-15	-0.6%	0.4%
CCN(CC)S(=O)(=O)c1cc(NC(=O)C2=COCCO2)ccc1Cl	/	0.5	-14	/	23	0.4%	-1.4%
Cc1cccc(N2Cc3ccc(Br)cc3C2)c1	/	-0.4	/	/	-18	-0.1%	0.6%
C[C@@H]1C(=O)N(S(=O)(=O)c2ccccc2[N+](=O)[O-])[C@H]1c1ccc(-c2ccccc2)cc1	-1.5	1.0	/	16%	52	/	/
NC(=O)c1c(NC(=O)CSc2nc(N)cc(=O)[nH]2)sc2c1CCCC2	9.7	-0.9	5	-28%	34	0.0%	-2.4%
CCCCC(CC)C(=O)Nc1cc([N+](=O)[O-])ccc1F (configuration not stated)	0.5	2.0	4	1%	28	1.6%	-1.7%
CCOC(=O)Nc1ccc(S(=O)(=O)N2CCOCC2)cc1	-1.9	-0.8	0	8%	1	-2.9%	0.7%
CC1CC2=C(NC(=S)NC2c2ccc(F)cc2)/C(=C/c2ccc(F)cc2)C1 (configuration not stated)	0.6	0.1	-4	-25%	14	3.4%[38.3 µM]	0.8%
Cc1cc(NC(=O)OC2CCCCC2)ccc1[N+](=O)[O-]	-7.9	1.4	1	3%	25	2.0%	/
C/C(=N\Nc1ccc(S(N)(=O)=O)cc1[N+](=O)[O-])c1ccc2c(c1)OCO2	-0.6	2.6	-10	9%	13	5.8%	/
O=C(c1c[nH]c(C(=O)C(Cl)(Cl)Cl)c1)c1c(F)cccc1F	-5.7	-0.7	17	-1%	-1	0.9%	/
COc1cc(OC)cc(C(=O)NCC(=O)OCC(=O)Nc2ccc(C)c(S(=O)(=O)N3CCOCC3)c2)c1	/	-0.1	0	/	-3	2.9%	-6.3%
Cc1ccccc1CNC(=O)CCCn1nc(C)c2sc3ccccc3c2c1=O	/	0.9	/	/	20	2.4%	-7.3%
COc1ccc(CNC(=O)Cn2ncc3c(=O)oc4ccc(C)cc4c32)c(OC)c1	/	15	/	/	12	-0.8%	-2.3%
Cc1ccccc1OCC(=O)N/N=C/c1cccc(Oc2ccc([N+](=O)[O-])cc2[N+](=O)[O-])c1	-2.9	-0.5	7	1%	5	1.0%	2.1%
CC(=O)Nc1cccc2ncccc12	0.1	0.6	5	22%	2	2.3%	-5.4%
C/C(CC(=O)Nc1ccccc1[N+](=O)[O-])=N\NC(=O)COc1ccccc1C	0.2	0.1	-1	12%	28	-1.8%	-2.0%
Clc1cccc(Cl)c1Cn1nnc(N2CCCC2)n1	3.4	2.9	?	4%	5	-0.2%	/
CC1(C)CC(=O)C=C(Nc2ccc3c(c2)CCC3)C1	-0.3	/	1	18%	/	-0.2%	-0.4%

Carrying on:
SMILES	Menin-MLL FL inh	TRPML1 agonist	TRPV1 PAM	Sfp inh	TRPML1 inh	PINK1 modulator	ClpP mod
C/C(CC1(O)/C(=N/O)CCc2nonc21)=N\O (configuration not stated)	0.2	-0.7	10	11%	2	-1.6%	-0.3%
CCc1ccc2c(c1)NC(c1ccc(C)cc1)=NC(c1cccs1)=N2	/	-0.3	/	/	18	-1.6%	1.7%
COCCNC(=O)Cc1c(C)c2c(cc(C)c3c(C(C)(C)C)coc32)oc1=O	7.6	0.6	18	-7%	6	-1.3%	14µM*
O=C(/C=C/c1ccc(N2CCCCC2)c([N+](=O)[O-])c1)c1ccc(S(=O)(=O)N2CCCC2)cc1	1.1	1.5	7	4%	-1	-2.2%	1.0%
COCC(C)n1c(SCc2nc(N)nc(Nc3ccccc3C)n2)nc2ccccc2c1=O (configuration not stated)	3.8	0.8	-5	12%	6	9.8%	1.6%
CCOC(=O)N1CCN(C(=O)CN(C)S(=O)(=O)c2ccc(OC)c(OC)c2)CC1	1.2	-0.8	5	-3%	1	-0.4%	-1.0%
N#CC1CC(c2ccccc2)Nc2cc(Cl)ccc2N1 (configuration not stated)	4.7	0.4	-4	7%	-3	5.8%	4.4%
Nc1ccc(C(=O)Nc2ccc3nc(-c4ccncc4)[nH]c3c2)cc1	-0.3	1.0	4	25%	-1	-0.4%	-3.2%
CCN(CC)S(=O)(=O)c1ccc(N2CCCC2)c(NC(=O)Cc2c(F)cccc2Cl)c1	/	0.1	23	21%	-7	10%	-1.8%
O=C1NC(=S)SC1=Cc1cc(Br)ccc1O	/	5.9	/	/	1	0.2%	/
COc1cc(NC(=O)c2cc(-c3ccccc3O)no2)cc(OC)c1OC	/	-0.4	/	/	-9	3.0%	-1.9%
Cc1nc2oc3c(NCc4ccccn4)ncnc3c2c2c1COC(C)(C)C2	2.1	0.0	-4	-21%	2	-1.0%[38.3 µM]	39%
CCCOc1ccc(C(CC(=O)O)NC(=O)c2cccs2)cc1 (configuration not stated)	2.6	0.2	-7	2%	17	4.1%[38.3 µM]	-0.8%
CN1CCN(c2ncc3nc(CCc4ccccc4)c(=O)n(CCC#N)c3n2)CC1	-7.6	/	/	12%	/	-0.3%	/
O=C(OC(C(=O)Nc1cccc(C(F)(F)F)c1)c1ccccc1)C1CCCCC1 (configuration not stated)	6.9	0.3	-6	27%	9	?	1.4%
Nc1ncc(S(=O)(=O)Nc2ccc(OC(F)(F)F)cc2)cn1	/	3.4	/	/	-9	-1.0%	-0.5%
CSc1ccc2[nH]c(=O)cc(C)c2c1	-1.1	1.3	-16	11%	-11	-1.4%	35µM*
COc1cc(CNC2CCCCCC2)cc(OC)c1O	-0.4	0.0	15	26%	34	13%[38.3 µM]	0.2%
Cc1ccc(OCc2nc3ccccc3[nH]2)cc1	4.4	-0.4	-13	6%	3	-0.9%	/
Cc1cc(=O)oc2cc(NC(=O)Cc3ccccc3)ccc12	-1.4	-0.3	?	4%	14	1.7%	/
CC1CCCN(S(=O)(=O)c2ccc3[nH]c4c(c3c2)CCCC4)C1 (configuration not stated)	/	-1.0	-6	1%	7	?	-13%
O=C(COc1ccc2ccccc2c1Br)N1CCCCC1	/	1.3	0	-14%	22	1.3%	-3.2%
O=C(Cc1n[nH]c(=O)c2ccccc12)N/N=C/c1cc2c(cc1Cl)OCO2	1.4	0.0	9	-25%	24	-0.9%	/
Cc1ccc(S(=O)(=O)N2CCOCC2)c2nsnc12	-15	-1.1	1	20%	-9	-4.6%	1.7%
CCC(NC(=O)c1cccc(Cn2nc(C)c([N+](=O)[O-])c2C)c1)c1ccc(C(C)C)cc1 (configuration not stated)	1.3	1.2	3	21%	-3	6.5%[38.3 µM]	0.0%

Single records (already shown). Screens in order: Menin-MLL FL inh | TRPML1 agonist | TRPV1 PAM | Sfp inh | TRPML1 inh | PINK1 modulator | ClpP mod
O=C(COc1ccc2ccccc2c1Br)N1CCCCC1 as listed: / | 1.3 | 0 | -14% | 22 | 1.3% | -3.2%
COc1cc(NC(=O)c2cc(-c3ccccc3O)no2)cc(OC)c1OC as listed: / | -0.4 | / | / | -9 | 3.0% | -1.9%

Single values from the list.
CSc1ccc2[nH]c(=O)cc(C)c2c1 in TRPML1 agonist has 1.3
CCN(CC)S(=O)(=O)c1ccc(N2CCCC2)c(NC(=O)Cc2c(F)cccc2Cl)c1 in Sfp inh has 21%

The listing continues:
SMILES	Menin-MLL FL inh	TRPML1 agonist	TRPV1 PAM	Sfp inh	TRPML1 inh	PINK1 modulator	ClpP mod
CCN(CC)C(=O)CSc1nc2c(c(-c3cccnc3)c1C#N)CCCC2	-1.2	0.4	-12	11%	-10	0.3%	/
CCOc1ccc(N(CC)S(=O)(=O)c2ccc3c(c2)oc(=O)n3C)cc1	-2.6	0.4	-11	-9%	13	0.7%	-3.3%
Cc1cc(C)cc(N2C(=O)C3NN=C(C(=O)OCc4ccccc4)C3C2=O)c1 (configuration not stated)	1.4	0.8	-14	?	13	1.2%	-1.0%
CNC1(c2nnnn2-c2c(C)cccc2C)CCOC(C)(C)C1 (configuration not stated)	-1.2	/	0	-9%	/	0.9%	1.0%
CC(=O)c1cccc(N(C(=O)c2ccco2)C(C(=O)NC2CCCC2)c2ccccc2F)c1 (configuration not stated)	-3.9	-0.6	16	13%	-5	0.4%	/
O=C(NC1CCCc2ccccc21)C1CCN(S(=O)(=O)c2cccc3nonc23)CC1 (configuration not stated)	-0.3	0.4	10	13%	-3	?	1.7%
CCOc1ccc2[nH]c(=O)c(CN(CCN3CCOCC3)Cc3nnnn3C(C)(C)CC)cc2c1	-3.5	-0.2	2	-13%	22	-0.9%[38.3 µM]	?
COc1cccc(/C(C)=N/N=C(\C)c2cccc(OC)c2)c1	-0.3	2.4	12	9%	10	0.1%	-0.6%
Cc1cccc(OCC(=O)NNC(=O)Nc2cccc(Cl)c2)c1C	4.8	2.4	-28	13%	0	18%	-1.8%
Cc1oc2cc3oc(=O)c(CCC(=O)NCCCn4ccnc4)c(C)c3cc2c1C	3.0	/	-10	11%	/	-1.1%	?
CC(C)(C)c1cc(C(=O)NCCCn2ccnc2)cc(C(C)(C)C)c1	-16	0.1	-2	10%	13	11%	2.4%
CCOC(=O)CN1C(=O)N[C@@H](c2cccc(C(F)(F)F)c2)[C@H](C(C)=O)[C@H]1C	1.2[11.7 µM]	-0.1	/	-3%	-1	-0.9%	1.3%
Cc1cc(F)ccc1S(=O)(=O)Nc1ccccc1C(=O)Nc1ccccc1-c1nc2ccccc2[nH]1	14	0.2	-1	29%	-4	45µM*	32µM*
